# High-throughput results deposited in PubChem by several laboratories.
# Yeast UUG start: alters start codon recognition fidelity in yeast. S. cerevisiae UUG-firefly luciferase reporter, luminescence/redox ratio. activity score, % at 18.7 µM. 0.13% of 350,000 active. AID 602363;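 active = replicate mean at a twofold rise or more, about +100% in these data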;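 also: firefly luciferase made from a UUG start codon reports start codon fidelity; reporter light over untreated wells divided by growth signal over untreated wells; some hits fall short of that in this replicate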
# Rce1 inhib: yeast Ras-converting enzyme inhibition | Q03530 | yeast membranes, quenched prenylated peptide cleavage fluorescence | calls only | 0.27% of 290,000 active | AID 2563;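 active = fall in fluorescence gain of 50% or more versus controls, with final raw signal at or below 3038400; inconclusive = same 50% fall but final raw signal above 3038400; inactive = fall in fluorescence gain under 50%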;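 also: plate controls were neutral control wells for no effect and wells lacking membranes for full effect; tested at 10 µM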
# Target sequence (Q03530 whole entry, looked up): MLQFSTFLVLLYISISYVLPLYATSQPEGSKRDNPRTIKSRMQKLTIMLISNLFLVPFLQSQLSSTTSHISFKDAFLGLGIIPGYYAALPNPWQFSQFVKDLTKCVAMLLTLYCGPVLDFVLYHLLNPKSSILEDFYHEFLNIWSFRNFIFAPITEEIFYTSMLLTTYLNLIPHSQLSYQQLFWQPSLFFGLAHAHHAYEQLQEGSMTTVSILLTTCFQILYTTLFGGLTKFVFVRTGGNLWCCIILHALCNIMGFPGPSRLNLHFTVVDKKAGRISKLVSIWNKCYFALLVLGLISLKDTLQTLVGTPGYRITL
# MT1-MMP act inh: inhibitors of human MT1-MMP activation | P50281 | 0.061% of 360,000 active | GFP/RFP ratio change, % at 20 µM | AID 651647 | HT1080 RFP-PRO-GFP cells, GFP/RFP ratio fluorescence, overnight; percent of plate control window, DMSO zero;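 active = GFP/RFP ratio change of at least 30% with cell ATP level not reduced by more than half and red fluorescence within 50% of control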; also: strong numbers were not always called active
#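 Assay system: HT1080 RFP-PRO-GFP cells | Dosing: 20 µM single dose, 1% DMSO | Incubation: Cells overnight before dosing, compound overnight, 37 °C, 5% CO2 | Evaluation: GFP/RFP fluorescence ratio | Control set: DMSO-only wells and HT1080 RFP-L50D-GFP cell wells as references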
# eIF4H inh: inhibitors of RNA binding by human eIF4H | Q15056 | eIF4H fluorescence polarization binding assay | inhibition, % at 35 µM | 0.94% of 290,000 active | AID 2012;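 active = 50% or more with normal probe brightness, or confirmed in later tests; inconclusive = above 50% with abnormal brightness, or retests that disagree; inactive = below 50% or failed in later tests; about a fifth of its hits are not listed in these tables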;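 also: calls also rest on retests at 20 µM and on dose response follow-up; 0% = protein and probe with vehicle and 100% = probe without protein; strong numbers were not always called active; many hits fall short of the cut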
# PABP polyA inh: PABP-poly(A) binding inhibition; PABP-poly(A) RNA binding, fluorescence polarization; inhibition, % at 35 µM; 1% of 290,000 active; AID 2014;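 active = 50% or more with normal probe brightness, or confirmed in later tests; inconclusive = above 50% with abnormal brightness, or retests that disagree; inactive = below 50% or failed in later tests; about a fifth of its hits are not listed in these tables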;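 also: calls also rest on retests at 20 µM and on dose response follow-up; controls were probe without protein and protein plus probe with vehicle; some compounds called inactive have numbers as strong as hits; many hits fall short of the cut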
# Target sequence (P11940 whole entry, looked up): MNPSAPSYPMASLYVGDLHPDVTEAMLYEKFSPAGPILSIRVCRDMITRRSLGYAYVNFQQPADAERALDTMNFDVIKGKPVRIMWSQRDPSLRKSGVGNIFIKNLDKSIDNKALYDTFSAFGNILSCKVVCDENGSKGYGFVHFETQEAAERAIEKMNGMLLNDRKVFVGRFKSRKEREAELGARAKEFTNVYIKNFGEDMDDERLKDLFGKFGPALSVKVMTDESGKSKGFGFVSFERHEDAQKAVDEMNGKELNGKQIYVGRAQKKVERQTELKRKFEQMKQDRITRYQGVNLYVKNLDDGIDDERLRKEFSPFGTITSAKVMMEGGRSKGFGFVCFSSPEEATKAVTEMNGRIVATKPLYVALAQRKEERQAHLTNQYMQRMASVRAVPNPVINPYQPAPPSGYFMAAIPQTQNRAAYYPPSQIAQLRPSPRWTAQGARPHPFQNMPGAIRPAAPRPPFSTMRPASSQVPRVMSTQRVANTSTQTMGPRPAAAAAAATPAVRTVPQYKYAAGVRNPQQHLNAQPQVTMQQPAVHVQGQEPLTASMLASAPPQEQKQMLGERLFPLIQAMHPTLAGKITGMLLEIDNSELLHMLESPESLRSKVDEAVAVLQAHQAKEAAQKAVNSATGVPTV
# CSC inhib: blocks cancer stem cells; inhibition, % at 7.5 µM; cancer stem cell-like cells viability, luminescence; 1.1% of 300,000 active;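 active = mean at 75% or more and at least half the replicates too; inconclusive = mean and replicates disagree; tested in HMLE shEcad cells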;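 also: 0% = median of negative and 100% = median of positive control wells; the first replicate is given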
# Env fusion inh: inhibitors of HIV Env-mediated cell fusion. HeLa-JRFL Env/CEM21 cell fusion, luciferase. inhibition, % at 12.3 µM. 1.1% of 360,000 active. AID 651610;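 active = mean replicate inhibition score of at least 50 and every replicate individually at or above 50; inconclusive = only one of the two criteria met; inactive = mean below 50 and not all replicates reaching 50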;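 also: 0% = plate neutral controls and 100% = maraviroc near 300 nM; one replicate is shown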
# MT1-MMP act inh RFP: further read-out of MT1-MMP act inh, marked with its call; RFP signal change, %; measured here: RFP expression control read;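 0 = vehicle wells; hits needed this value within 50% of zero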
# The depositor's hits bear a star; i = inactive; u = inconclusive; x = not tested or not shown. The list is partial. The share of hits here may be higher or lower than overall.
Compound,MT1-MMP act inh RFP,CSC inhib,Rce1 inhib,MT1-MMP act inh,Env fusion inh,PABP polyA inh,Yeast UUG start,eIF4H inh
O=C(Nc1cccc(F)c1)N1CC=C(c2ccc(Cl)cc2)CC1,8,20,i,5,x,-1,-23,8
CC(=O)c1ccc(S(=O)(=O)NCCC(=O)OCC(=O)N2CCCC2=O)cc1,9,-15,i,-2,x,x,-8,x
Cn1cnc2c1c(=O)n(Cc1cccc(Br)c1)c(=O)n2C,-2,-8,i,0,-52,4,-16,-7
O=C(c1ccc2c(c1)N(Cc1cccc(Cl)c1)C(=O)c1ccccc1S2(=O)=O)N1CCN(c2ccccn2)CC1,-2,28,i,0,-25,20,-16,11
Cc1cccc(-n2c(N)cc(=O)[nH]c2=S)c1,3,-15,i,-2,-107,-6,-22,-5
CC(C)(C(=O)N1CCC1(C)C(=O)NS(=O)(=O)c1ccc(Br)cc1)c1ccccc1 (configuration not stated),6,x,x,1,15,x,0,x
Cc1cc(C(=O)Nc2ccc(Br)cc2F)n(-c2ccccc2)n1,-1,-6,i,-2,8,-1,x,-11
OCCC1CN(Cc2ccccc2O)CCN1CCc1ccccc1 (configuration not stated),-2,-10,i,-1,4,-7,x,-5
CN(C)CCC(O)(c1ccccc1)c1ccccc1,-2,-4,i,-10,x,-6,x,-11
O=C(NC(=S)Nc1ccccc1N1CCCC1)c1ccc([N+](=O)[O-])cc1,1,-25,i,4,-26,-4,x,0
Cc1ccc(C(c2nnnn2CC2CCCO2)N2CCN(c3cccc(C)c3C)CC2)cc1 (configuration not stated),-31,24,i,-37,x,5,-15,-8
O=C(Oc1cccc2c(O)cccc12)c1ccccc1Cl,0,x,x,-5,-41,x,1,x
Cn1c2ccc(F)cc2c2nnc(SCCN3CCCCC3)nc21,3,x,i,-3,-39,-2,x,-14
COC(=O)C1CCN(C(=O)c2ccccc2NC(C)=O)CC1,1,-4,i,0,-23,7,-5,-8
Cc1ccc(-c2nn(-c3ccccc3)cc2CC(=S)N2CCOCC2)cc1,-5,-5,i,0,-3,2,-12,3
CC(=O)c1cnn(-c2cc(Oc3cccc(C)c3)ncn2)c1C,-2,4,i,-2,x,-1,-13,-2
Cc1ccccc1OCc1nc2ccccc2c(=O)n1/N=C/c1cn[nH]c1-c1ccccc1,-7,25,i,-4,19,9,-18,-5
CC(C)c1[nH]nc2c1C(c1ccc(OC(=O)c3ccco3)cc1)C(C#N)=C(N)O2 (configuration not stated),6,-10,i,0,x,-1,x,-6
C=CC[C@H](CC(=O)NCCO)C(=O)N[C@@H](COC(=O)[C@@H](CC=C)Cc1ccc(F)cc1)Cc1ccccc1,-3,x,x,-2,79*,x,-15,x
O=C(c1ccc2c(=O)n(C3CCCC3)c(=S)[nH]c2c1)N1CCc2ccccc21,-13,-28,i,-2,5,14,0,-3
O=C(c1ccc(C(F)(F)F)cc1)C1CCCN(C(=O)Cn2cnnn2)C1 (configuration not stated),0,-5,i,-1,-9,5,x,-6
O=C(Nc1ccc2c(c1)oc1ccccc12)c1cccnc1,-4,4,i,2,x,-14,-13,-14
CC(C)COC(=O)N1CCCCC1c1cc(C(=O)N2CCOCC2)no1 (configuration not stated),0,x,x,2,6,x,-6,x
Cc1cccc(NS(=O)(=O)c2ccc(NC(=O)CN(c3cc([N+](=O)[O-])ccc3C)S(C)(=O)=O)cc2)c1,-16,96*,i,-6,x,3,1,8
CCOC(=O)/C(=N\Nc1ccccc1)c1csc(Nc2ccc(C)cc2)n1,2,74,i,4,x,-12,-13,-7
Cc1ccc(C(=O)NCCNC(=O)CN2CCCC2)cc1,-2,2,i,-1,-26,-6,x,0
CCOC(=O)N1CCN(C(=O)CSc2ncccn2)CC1,8,23,i,3,23,-9,-19,1
COc1ccc(NS(=O)(=O)c2cccc(C(=O)NNC(=O)c3ccccc3O)c2)cc1,-13,36,i,0,1,x,x,x
CCn1c(CNC(=O)c2ccc(Cl)cc2)nnc1SCC(=O)NC1=NCCS1,4,-4,i,3,7,7,-10,-9
COc1ccc(-n2c(COc3ccc4c(c3)OCO4)nnc2SCC(=O)O)cc1,2,10,i,1,-13,-2,x,-15

# Look-ups from the entries so far.
# `O=C(c1ccc2c(=O)n(C3CCCC3)c(=S)[nH]c2c1)N1CCc2ccccc21` in PABP polyA inh = 14
# `O=C(NC(=S)Nc1ccccc1N1CCCC1)c1ccc([N+](=O)[O-])cc1` in MT1-MMP act inh RFP = 1
# `CC(=O)c1ccc(S(=O)(=O)NCCC(=O)OCC(=O)N2CCCC2=O)cc1` in MT1-MMP act inh RFP = 9

# More entries follow:
Compound,MT1-MMP act inh RFP,CSC inhib,Rce1 inhib,MT1-MMP act inh,Env fusion inh,PABP polyA inh,Yeast UUG start,eIF4H inh
Cc1cccc(OCC(=O)NCCCNC(=O)c2cccnc2)c1,0,x,i,2,-26,-4,-17,-1
CC(C)(C)c1ccc(S(=O)(=O)NC(Cc2ccccc2)C(=O)O)cc1 (configuration not stated),2,11,i,5,-67,2,14,-7
CC(C)SC1=NC(C)(C)C=C(/C=C/c2c(Cl)cccc2Cl)N1,-3,13,i,-3,x,-3,15,-11
CCn1cc(Br)c(C(=O)Nc2ccc(F)c(Cl)c2)n1,1,3,i,-3,-5,-3,19,-1
CSc1ccc(/C=N/NC(=O)CNc2cccc3ccccc23)cc1,2,4,i,1,5,6,x,-12
COc1ccc2nc(SCC(N)=O)[nH]c2c1,3,-5,x,1,-37,-6,6,-5
COc1cc(Cl)ccc1OCc1cc(C(=O)N2CCN(C)C(=O)[C@@H]2C)no1,-2,x,x,2,-72,x,-16,x
O=c1c2ccccc2oc2cc(-c3ccc(CN4CCOCC4)cc3)ccc12,-18,u,x,1,-168,x,-13,x
CC(C)C(=O)Nc1ccc(C=C2C=Cc3ccccc32)cc1,-1,x,x,5,-127,x,-8,x
CCOC1=C2[C@@H](CN(S(=O)(=O)c3ccc(C)cc3)[C@H]2c2cccc3ccccc23)[C@H]2C(=O)N(C3CCCCC3)C(=O)[C@H]2C1,-1,x,x,1,-50,x,-14,x
Cc1sc2nc(COC(=O)c3ccc(O)cc3)[nH]c(=O)c2c1C,1,-13,i,4,10,-8,-7,-17
CCc1cc(CNC(=O)c2ccc(OC3CCN(C(C)=O)CC3)c(OC)c2)on1,0,-3,i,3,5,4,4,6
C=CCOc1ccc(/C=C/C(=O)OCC(=O)NCCc2ccccc2)cc1,2,-21,i,0,x,x,-7,x
COC(=O)c1ccccc1S(=O)(=O)N(CCCN1CCOCC1)Cc1cccs1,-2,-38,i,-1,-214,-2,-19,7
COc1cccc2c(=S)c(CCC(C)=O)c(C)[nH]c12,4,-7,i,1,19,1,-12,12
Cc1cc(C)cc(OCCCC(=O)O)c1,5,-13,i,6,x,-4,0,-4
Cc1cc(C)n(S(=O)(=O)c2ccc3oc(=O)ccc3c2)n1,2,x,i,1,1,-1,-4,4
COC(=O)CCC(=O)OC1(C)C(=O)C2=CN(CC(C)C)C(c3ccc(OC)cc3)=CC2=C(Br)C1=O (configuration not stated),x,4,i,x,x,22,x,20
COc1ccc(N2C(=O)C(Cl)=C(Nc3ccccc3OC)C2=O)cc1,1,-16,i,2,-4,6,-11,-4
CCCNC(=O)c1sc2c(c1C(=O)Nc1ccccn1)CCCC2,-8,-6,i,-5,11,4,19,3
CC(C)C[C@@H](N)c1nnc(SCC(=O)c2ccc(Cl)cc2)o1,-3,-4,i,-2,45,8,2,-10
CCOc1c2ccccc2nn1CCO,10,-5,x,12,10,x,-8,x
COc1ccc(-c2nc(O)c3cnccn23)cc1,-3,-3,i,0,6,-2,x,2
COC(=O)c1cc(Cl)c(NC(=O)/C=C/c2ccc(OC)c(OC)c2)cc1OC,-6,3,i,6,-29,-6,-16,-2
Cc1[nH]c2ccccc2c1C(c1ccncc1)N1CCN(c2ccccn2)CC1 (configuration not stated),2,-10,i,6,-9,-2,-16,11
Cc1cc(OCC(=O)N[C@@H](Cc2c[nH]c3ccccc23)C(=O)O)c2c(C)c(C)c(=O)oc2c1,2,-12,i,4,x,8,11,4
CCN(c1ccccc1)S(=O)(=O)c1c[nH]c2ccc([N+](=O)[O-])cc12,-5,13,i,1,11,9,-9,-6
O=C1S/C(=C\c2ccccn2)C(=O)N1Cc1ccccc1F,2,-5,i,2,4,-1,x,8
CN(c1ccc(C(=O)Nc2ccccn2)cc1)S(=O)(=O)c1ccccc1,1,19,i,0,-21,-5,-10,-9
CC(=O)Nc1ccc(-c2ccnc3c2CC(C)(C(=O)Nc2cccc(C(F)(F)F)c2)O3)cc1 (configuration not stated),-2,x,x,1,-13,x,-11,x

# Later entries:
Compound,MT1-MMP act inh RFP,CSC inhib,Rce1 inhib,MT1-MMP act inh,Env fusion inh,PABP polyA inh,Yeast UUG start,eIF4H inh
O=C(c1cncc(Br)c1)N1CCN(S(=O)(=O)c2ccccc2)CC1,-2,-5,i,-2,9,-4,-3,-13
Cc1cccc(C(=O)N(c2ccccn2)C(C)c2ccco2)c1 (configuration not stated),2,12,i,1,-2,-6,-11,-6
O=C(Nc1ccc2c(c1)OCO2)Nc1ccc(Br)cn1,-5,18,i,-4,-208,1,-3,-2
CCN(C[C@H]1N[C@@](CC)(C(=O)OC)[C@H]2C(=O)N(C)C(=O)[C@@H]12)C(=O)C1CCCCC1,5,x,x,2,0,x,-18,x
O=C1c2ccccc2C(=O)N1CCC#Cc1ccc2cc(C3(O)CCCCC3)oc(=O)c2c1,-8,4,x,3,14,x,-9,x
Cc1c(C)c2ccc(OCC(=O)Nc3ccc(N4CCC(C)CC4)cc3)cc2oc1=O,-12,1,i,13,1,-10,-14,-11
O=C(NC1CCCC1)C1CC(=O)N(CCc2ccccc2)C1 (configuration not stated),-4,2,i,0,x,4,-15,5
Cc1cc(NC(=O)CSc2nnc(-c3c[nH]c4ccccc34)n2C)no1,3,-2,i,3,-11,5,-7,-4
Cn1c(CN2CCOCC2)nnc1SCC(=O)NC1CCCCC1,1,5,i,-1,-144,-4,-22,10
CC(c1ccccn1)N(CCN(C)C)C(=S)Nc1ccccc1F (configuration not stated),5,-15,i,-1,x,-2,-17,0
C/C(=N\Nc1nc2ccccc2[nH]1)c1cc2ccccc2o1,4,20,i,11,-277,-12,x,9
O=C(Nc1ccc(Cl)cc1)N(C1=NCCC1)c1ccc(OC(F)F)cc1,-4,-4,i,0,-8,-10,-17,-5
O=C(CN(Cc1ccccc1)C(=O)CCC(=O)Nc1nccs1)NCc1ccc(F)cc1,0,-8,i,3,-4,-2,4,2
CCOc1cc(N2CCOCC2)c(OCC)cc1NC(=O)c1cccc(N(C)C)c1,-1,2,i,5,3,30,-3,-3
CC(NC(=O)c1cccs1)c1nnc(SCc2ccc(Cl)cc2Cl)n1C (configuration not stated),-3,0,i,-1,7,-2,-24,-4
C=CC[C@@H](CC(=O)N[C@@H](CO)Cc1ccccc1)C(=O)N[C@H](COC(=O)[C@H](CC=C)CC(=O)OC(C)(C)C)Cc1c[nH]c2ccccc12,-11,-3,x,8,-91,x,-12,x

# By substructure, the entries above with a tert-butyl group
Compound,MT1-MMP act inh RFP,CSC inhib,Rce1 inhib,MT1-MMP act inh,Env fusion inh,PABP polyA inh,Yeast UUG start,eIF4H inh
CC(C)(C)c1ccc(S(=O)(=O)NC(Cc2ccccc2)C(=O)O)cc1 (configuration not stated),2,11,i,5,-67,2,14,-7
C=CC[C@@H](CC(=O)N[C@@H](CO)Cc1ccccc1)C(=O)N[C@H](COC(=O)[C@H](CC=C)CC(=O)OC(C)(C)C)Cc1c[nH]c2ccccc12,-11,-3,x,8,-91,x,-12,x
